Mtb hypoxia rep – Mtb hypoxia fluorescent reporter inhibition; AID 1159583; M. tuberculosis hypoxia-regulated fluorescent reporter, fluorescence; 300,000 compounds, 0.1% hits; fluorescence inhibition, % (no concentration beside the values);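 active = 35 to 45% if threefold the growth effect, above 45% if 1.5-fold the growth effect; inactive = the rest, general growth blockers included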;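 also: wells of about 50 µL received 100 nL stock; 0% = vehicle wells and 100% = reference inhibitor wells; whole bacteria with a GFP reporter of the hypoxia response; strong numbers were not always called active; many hits fall short of the cut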
ugtP null kill – growth inhibition of S. aureus ugtP deletion strain; growth inhibition, % (concentration not given with the values); 330,000 compounds, 0.54% hits; S. aureus RN4220 ugtP deletion, OD600 growth, 16 h; some inactives read as strong as hits; AID 1259309;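 active = z-score under -3 and OD600 up to 0.15 on both plates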;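 also: plate controls were untreated wells for no effect and antibiotic for full effect; wells of about 80 µL received 100 nL stock; the first replicate is given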
Autofluor counter – counter-screen for toxin protease inhibitors: compound fluorescence | fluorescence intensity (concentration not given with the values) | 360,000 compounds, 3.1% hits | compound autofluorescence counterscreen, microsphere flow cytometry; hits give high values | AID 624483;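 active = at least 3 SD above the mean of all compounds, about 16000 in these data; inconclusive = too few beads counted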;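 also: 100 nL of 1 mM stock went into each well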
PrP 5UTR inh – inhibition of PrP 5' UTR reporter expression | cell-based PrP 5' UTR mRNA reporter, plate reader | inhibition, % (concentration not given with the values) | 340,000 compounds, 0.35% hits;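 active = every replicate at 50% or more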;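 also: 0 = median of the neutral control wells; tested in H4 reporter cells; numbers are from one replicate; inactives centre near -14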
BJeLR viability – BJeLR cell viability loss. BJeLR (HRASV12) viability, CellTiter-Glo ATP luminescence, 48 h; reference of the scale not given here. inhibition, % (concentration not given with the values). 300,000 compounds, 0.17% hits. AID 1554;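 active = replicate mean above 50%; inconclusive = above 50% but judged a plate artefact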;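 also: 50 nL library stock added to about 25 µL; numbers are from one replicate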
RN4220 kill – S. aureus RN4220 growth inhibition. OD600, 16 h. 330,000 compounds, 0.33% hits. inhibition, % (concentration not given with the values);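 active = z-score of -3 or lower and OD600 up to 0.18 on both plates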;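 also: plate controls were untreated cells for no effect and reference antibiotic for full effect; stock transfer was 100 nL into about 80 µL; one replicate is shown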
Mtb hypoxia rep growth – further read-out of Mtb hypoxia rep, marked with its call; growth inhibition, %; measured here: M. tuberculosis growth (absorbance);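 0% = vehicle and 100% = reference antibiotic; read after six days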
* = called active by the depositor; ? = inconclusive; nt = not tested or not shown.

The line under a structure holds: Mtb hypoxia rep	Mtb hypoxia rep growth	ugtP null kill	Autofluor counter	PrP 5UTR inh	BJeLR viability	RN4220 kill
COCCN(Cc1ccccc1)C(=O)c1cc(S(=O)(=O)N2CCCCCC2)ccc1OC
 : 6	3	22	6247	-21	-11	-0.3
CN(C)CCCNC(=O)c1cc(C(=O)c2ccccc2)c[nH]1
 : 6	8	8	3426	-8	-26	3.9
CC1CN(C2CCC(C#N)(c3ccc(F)cc3)CC2)CC[C@]1(C(=O)O)c1ccccc1 (stereo partly drawn)
 : 8	6	-1	nt	nt	nt	5.0
Cc1nn(CC(=O)NCc2cccnc2)c(=O)c2ccccc12
 : 6	4	1	4769	-6	3	-0.2
CCCNC(=O)c1ccc(Cn2c(=S)[nH]c3c([nH]c4ccc(OC)cc43)c2=O)cc1
 : 7	-3	-2	1978	-35	-17	2.3
CC1(C)N=C(c2ccc(Cl)cc2)C(=O)N1
 : 9	4	1	23886*	-4	-10	7.6
COc1cccc(/C(O)=C2/C(=O)C(=O)N(CCN3CCOCC3)C2c2cccs2)c1 (stereo not drawn)
 : nt	nt	12	3375	-28	3	0.4
COc1ccc(NC(=O)CCNC(=O)c2ccccc2Cl)cc1OC
 : 3	5	-2	3677	-8	-7	1.2
O=C(O)CCC(=O)N1N=C(c2cccs2)CC1c1cn(-c2ccccc2)nc1-c1ccccc1 (stereo not drawn)
 : -8	0	-10	5572	-11	-4	-1.1
CC1=C(C(=O)N2CCOCC2)C(c2cccc3ccccc23)NC(=S)N1 (stereo not drawn)
 : -4	-6	12	2489	-11	22	8.0
COC(=O)c1ccccc1NC(=O)c1cccs1
 : -1	5	-1	3992	-10	1	4.4
O=S(=O)(c1ccc(SCCOc2ccccc2Cl)nc1)N1CCCC1
 : 3	6	4	3635	-15	nt	1.7
CCc1cc(C(=O)c2ccccc2)c(N)s1
 : -5	7	-4	3596	-30	-7	4.9
CC(=O)c1c(C)[nH]c(C(=O)CSc2nnc(-c3ccccc3)o2)c1C
 : -1	2	-3	3155	-12	3	26
COc1ccc(CNC(=O)C[C@H]2C[C@H](C(=O)N3CCCCC3)[C@@]3(C)c4[nH]c5cc(CCC(=O)N(C)C)ccc5c4CCN3C2=O)cc1OC
 : -30	-77	1	3547	1	nt	3.5
O=C(Nc1ccc(Br)cc1)C1CCCN(S(=O)(=O)c2cccnc2)C1 (stereo not drawn)
 : 9	9	9	4023	-34	-10	0.2
CN(C)S(=O)(=O)c1ccc(C(=O)Nc2nnc(-c3ccc4c(c3)CCCC4)o2)cc1
 : -3	-8	99*	5822	4	14	98*
Cc1c(C(=O)O)cccc1-n1c(C)cc(C=NNc2ccc([N+](=O)[O-])cn2)c1C
 : 17	5	-3	nt	nt	nt	9.8
CCN1CCN(c2cn[nH]c(=O)c2Cl)CC1
 : 13	9	9	3635	-19	7	2.2
Cc1cccnc1NC(=O)Nc1ccc(Cl)cc1
 : 2	-8	-14	3567	-49	-4	7.7
COc1ccccc1NC(=O)c1sc2ncn(Cc3ccccc3C)c(=O)c2c1C
 : 14	5	0	10793	-40	-4	-1.4
COCCn1c(SCCOc2ccccc2)nc2ccccc2c1=O
 : 10	3	0	7868	-9	9	19
CCOc1ccc(S(=O)(=O)NC2CCCC2)cc1
 : 6	6	-1	6143	-5	-9	2.6
Fc1cccc(Cc2noc(CN3CCCN(C4Cc5ccccc5C4)CC3)n2)c1
 : 4	8	-1	4870	-26	-6	-3.1
Cc1cccc(NC(=O)CSCC(=O)Nc2ccccc2N2CCCC2)c1
 : nt	nt	nt	4687	-33	-6	nt
COc1cc(-c2nc(S(=O)(=O)c3ccccc3)c(N3CCOCC3)o2)cc(OC)c1OC
 : 6	7	2	4308	-8	5	0.7
Cc1cc(-c2ccc(C(C)C)c(S(=O)(=O)NCCN3CCC(C)CC3)c2)on1
 : 9	2	7	4774	-16	1	3.5
CCN=C1SC(CC(=O)NC(C)c2ccccc2)C(=O)N1CC (stereo not drawn)
 : -1	0	4	2570	-24	0	1.0
CCn1c(=O)cc(OCC(=O)O)c2ccccc21
 : nt	nt	-2	2781	-26	4	1.2
O=C(O)CCCCCN1C(=O)C(O)=C(C(=O)/C=C/c2ccccc2)C1c1ccccc1[N+](=O)[O-] (stereo not drawn)
 : nt	nt	nt	4614	-26	-14	nt

As entered above.
Under Mtb hypoxia rep, `COc1cc(-c2nc(S(=O)(=O)c3ccccc3)c(N3CCOCC3)o2)cc(OC)c1OC` shows 6
Under Mtb hypoxia rep growth, `Cc1cc(-c2ccc(C(C)C)c(S(=O)(=O)NCCN3CCC(C)CC3)c2)on1` shows 2
Under Mtb hypoxia rep, `COCCn1c(SCCOc2ccccc2)nc2ccccc2c1=O` shows 10
Under Autofluor counter, `Fc1cccc(Cc2noc(CN3CCCN(C4Cc5ccccc5C4)CC3)n2)c1` shows 4870

Next records follow:
The line under a structure holds: Mtb hypoxia rep	Mtb hypoxia rep growth	ugtP null kill	Autofluor counter	PrP 5UTR inh	BJeLR viability	RN4220 kill
Cc1ccc(C(=O)NCC(=O)NCC(=O)OCc2ccc(Cl)cc2)cc1
 : 8	-4	-4	7055	-4	25	3.1
COc1ccc(C2c3ccc(O)cc3Oc3ncn(CCCO)c(=N)c32)cc1OC (stereo not drawn)
 : 5	-1	4	3988	-10	6	-1.1
Cn1nc(C(=O)Nc2cccc(C(F)(F)F)c2)c2ccccc2c1=O
 : -6	6	-23	nt	2	2	7.3
COc1ccc(-n2nc3c(N4CCC(C(=O)N5CCCCCC5)CC4)nnc(C)c3c2C)cc1
 : nt	nt	nt	15105	-20	-2	nt
Cc1c(Cl)cccc1NC(=O)CNC(=O)Cc1c[nH]c2ccccc12
 : 10	11	1	3552	-8	nt	1.2
COc1ccc(CN2CCNC(=O)C2CC(=O)N(C)CC2CCOCC2)c(F)c1 (stereo not drawn)
 : 7	5	4	5607	-8	-17	2.5
O=C(CSc1nc(-c2ccco2)cc(C(F)(F)F)n1)NC1CCCCCCC1
 : -2	-1	0	3306	-3	4	-5.3
O=S(=O)(NCc1cc(-c2ccccc2)no1)c1ccccc1Cl
 : -5	9	0	4899	-18	1	-1.2
Cc1cc(C(=O)OCC(=O)NCc2ccc(Cl)cc2)c(C)o1
 : 7	13	5	4275	2	5	-3.7
NC(=O)C(c1ccccc1)C1CCCCC1 (stereo not drawn)
 : nt	nt	-1	2491	-34	1	2.5
CC[N+](CC)(CC)CC(=O)Nc1ccc(SC(F)F)cc1
 : 6	-1	-1	3128	-7	-18	3.8
Cc1cccc(OCCNc2cc(N3CCN(CCO)CC3)ccc2[N+](=O)[O-])c1
 : 10	11	-1	2595	-40	7	-5.1
O=C(O)CSc1nnc(C2COc3ccccc3O2)n1-c1ccccc1 (stereo not drawn)
 : 6	21	2	19815*	7	-7	4.0
COc1ccccc1CNc1cc(C)ccc1C
 : 4	4	3	9808	1	-2	2.7
O=C(NCCc1ccc(Cl)cc1Cl)c1cncc(Br)c1
 : 16	3	5	3813	-19	7	6.3
O=C(CN1CCN(c2ccccn2)CC1)Nc1ccc(Oc2ccccc2)cc1
 : nt	nt	-12	2157	-5	-6	-7.7
COCCNC(=O)c1cccc(NS(=O)(=O)c2cccc3cccnc23)c1
 : 6	1	0	2132	-14	25	-0.2
CCN(CC(=O)Nc1ccccc1C(F)(F)F)C(=O)c1cc2c(s1)CCCCC2
 : 4	4	13	6377	-32	1	-1.4
COc1cc(/C(C)=N\NC(N)=S)cc(OC)c1OC
 : nt	nt	nt	7993	-9	-1	nt
COc1cc(C(=O)NCC(=O)N/N=C(\C)Cc2ccccc2)cc(OC)c1OC
 : nt	nt	nt	5538	-17	-2	nt
Cc1cc(NC(=O)Cc2c(F)cccc2Cl)no1
 : 5	19	2	4311	-15	10	0.8
O=C(NC12CC3CC(CC(C3)C1)C2)c1c(Cl)cccc1Cl
 : 5	2	6	3935	-35	-2	5.1
COc1ccc(C2C(C#N)=C(N)OC3=C2C(=O)CCC3)cc1Cn1nc(C)c([N+](=O)[O-])c1C (stereo not drawn)
 : 2	1	11	2454	-6	6	3.7
CCOC(=O)c1c(C)n(Cc2ccco2)c2ccc(O)cc12
 : 13	12	-1	2765	-33	-1	1.7
Nc1nnc(SCC(=O)NC2CCCCC2)s1
 : nt	nt	5	4570	-20	1	-0.2
CCOC(=O)N1CCN(S(=O)(=O)c2ccc(C(=O)Nc3sc4c(c3C#N)CC(C)(C)NC4(C)C)cc2)CC1
 : 12	10	11	6106	-13	-2	0.2
COc1ccccc1NCC(=O)NNCC(=O)Nc1ccc(F)c(Cl)c1
 : 14	4	4	2362	-15	0	-2.1
CC1S/C(=C(\C#N)C(=O)NCc2ccco2)N(c2ccc(F)cc2)C1=O (stereo not drawn)
 : nt	nt	-10	2529	-19	0	1.3
CNC(=O)C(=O)Nc1nc(C23CC4CC(CC(C4)C2)C3)cs1
 : 9	-1	-6	3660	-16	1	9.1
COc1ccc(-n2c(SCC(=O)N3CCC(C(=O)O)CC3)nc3ccccc3c2=O)cc1OC
 : -6	-5	-1	4393	-7	0	-1.8
CSc1cccc(NC(=O)CN(C)S(=O)(=O)c2ccccc2)c1
 : -5	0	-5	12370	-20	1	1.0
CC1=C(C)CC(C(=O)NCc2ccccc2F)C(C(=O)O)C1 (stereo not drawn)
 : nt	nt	nt	3807	-14	-1	nt
CCN(CC(=O)NCc1cccs1)C(=O)c1cccc(S(=O)(=O)Nc2cccc(C)c2)c1
 : 1	-1	14	2786	-16	nt	6.0
COc1ccccc1C(=O)NCCCNc1ccc([N+](=O)[O-])cc1
 : 4	5	-2	2073	-1	-4	5.0
COc1ccccc1N(CC(=O)NCCSC(C)(C)C)S(C)(=O)=O
 : 11	7	1	9058	-14	5	5.5
COc1ccc(NC(=O)CSc2nnc(NC(=O)C3CC3)s2)cc1OC
 : 2	8	3	?	-13	-3	-0.9
CCOC(=O)c1sc(=NC(=O)c2ccc(Cl)s2)n(C)c1C
 : 20	8	3	3522	-78	-10	3.5
CCN(CC(=O)Nc1ccc(OC)cc1)CC(=O)Nc1cccc(C#N)c1
 : 3	7	-1	4059	-9	-10	2.6
COc1ccc(NC(=O)C2CC(=O)OC2(C)C)cc1 (stereo not drawn)
 : 9	7	15	9593	-34	2	3.3
O=C(CSc1cn[nH]n1)Nc1ccc(Cl)cc1Cl
 : 10	5	0	3945	-32	4	0.2

A draw from above in order of molecular weight, ascending.
The line under a structure holds: Mtb hypoxia rep	Mtb hypoxia rep growth	ugtP null kill	Autofluor counter	PrP 5UTR inh	BJeLR viability	RN4220 kill
COc1ccc(NC(=O)C2CC(=O)OC2(C)C)cc1 (stereo not drawn)
 : 9	7	15	9593	-34	2	3.3
CC1=C(C)CC(C(=O)NCc2ccccc2F)C(C(=O)O)C1 (stereo not drawn)
 : nt	nt	nt	3807	-14	-1	nt
CCOC(=O)c1sc(=NC(=O)c2ccc(Cl)s2)n(C)c1C
 : 20	8	3	3522	-78	-10	3.5
CSc1cccc(NC(=O)CN(C)S(=O)(=O)c2ccccc2)c1
 : -5	0	-5	12370	-20	1	1.0
CCN(CC(=O)Nc1ccc(OC)cc1)CC(=O)Nc1cccc(C#N)c1
 : 3	7	-1	4059	-9	-10	2.6
CCN(CC(=O)NCc1cccs1)C(=O)c1cccc(S(=O)(=O)Nc2cccc(C)c2)c1
 : 1	-1	14	2786	-16	nt	6.0

Next results:
The line under a structure holds: Mtb hypoxia rep	Mtb hypoxia rep growth	ugtP null kill	Autofluor counter	PrP 5UTR inh	BJeLR viability	RN4220 kill
O=C(NCc1ccco1)/C(=C/C=C\c1ccccc1)NC(=O)c1ccc(Br)o1
 : 11	5	1	2556	-16	3	0.5
COc1ccc(C(=O)n2cnnc2N)cc1
 : nt	nt	3	4182	-2	-3	1.9
COc1ccc(Cc2nnc(NC(=O)c3c(-c4ccccc4)noc3C)s2)cc1OC
 : nt	nt	-8	5627	3	-4	3.1
CCCCN(C(=O)CSc1nnc(Nc2ccccc2)s1)c1c(N)n(CCC)c(=O)[nH]c1=O
 : -7	2	2	3122	46	-4	-0.7
COc1ccc(NC(=O)CSc2nnnn2C2CC3C=CC2C3)cc1 (stereo not drawn)
 : -2	-1	0	5597	-17	14	1.1

Exported with bars between the fields: entries from further up.
Compound | Mtb hypoxia rep | Mtb hypoxia rep growth | ugtP null kill | Autofluor counter | PrP 5UTR inh | BJeLR viability | RN4220 kill
COc1ccccc1CNc1cc(C)ccc1C | 4 | 4 | 3 | 9808 | 1 | -2 | 2.7
CC(=O)c1c(C)[nH]c(C(=O)CSc2nnc(-c3ccccc3)o2)c1C | -1 | 2 | -3 | 3155 | -12 | 3 | 26
